Screening results: PubChem, ICCB-Longwood Screening Facility, Harvard Medical School
Ab BasE inh – blocks the Acinetobacter baumannii siderophore enzyme BasE. 84,000 compounds, 0.1% hits. AID 485350. inhibition, % (test concentration not listed). purified BasE, fluorescence polarization binding displacement;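 active = both replicates above 25% with normal brightness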;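 note: 0% = negative plate control signal and 100% = positive plate control signal; stock transfer was 100 nL into about 30 µL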
KSHV LANA nucl – inhibitors of KSHV LANA binding to nucleosomes | FITC-LANA1-23 / chicken nucleosome fluorescence polarization; hits give low values | 51,000 compounds, 0.3% hits | z-score (no concentration beside the values) | AID 720717;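 active = both repeat wells score below -2 in polarization z-score versus plate sample wells, excluding overly bright wells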;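 note: 100 nL library stock added to about 30 µL; numbers are from one replicate; some results filed as inactive read as strong as hits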
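Material: Purified chicken nucleosomes with FITC-labelled LANA N-terminal peptide (1-23) | Reagent: 50 nM FITC-LANA1-23 probe | Medium: TEN-BT buffer, pH 7.5 | Times: 10–45 min incubation at room temperature | Detection: Fluorescence polarization | Replication: Duplicates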
* marks the source's active call; other numbers are inactive results; / = no result given; & = joins results of further samples. Some of the compounds tested, so the mix of outcomes need not match the whole.

SMILES	Ab BasE inh	KSHV LANA nucl
CC1CN(Cc2nc3c([nH]2)c(=O)[nH]c(=O)n3C)CC(C)O1 (stereo unspecified)	2.7	1.1
OC[C@H]1O[C@@H](Oc2ccccc2)[C@H](O)[C@@H](O)[C@@H]1O	3.0	-0.3
CC(C)(C)NS(=O)(=O)c1ccc(-c2nnc(SCC(=O)c3ccc(F)cc3)o2)cc1	-0.4	1.1
CC[C@H]1OC(=O)[C@H](C)[C@@H](O[C@H]2C[C@@](C)(OC)[C@@H](O)[C@H](C)O2)[C@H](C)[C@@H](O[C@H]2O[C@H](C)C[C@H](N(C)C)[C@H]2O)[C@](C)(O)C[C@@H](C)C(=O)[C@H](C)[C@@H](O)[C@]1(C)O	-1.8	-0.022
CCc1ccc2[nH]c(=O)c(CNC3CCCC3)cc2c1	-1.6	0.31
C#CC(C)(C)OC(=O)Nc1ccccc1	-1.2	0.35
Cc1[nH]n(-c2ccccc2)c(=O)c1/C=N/O	1.7	-0.022
Cc1c(/C=N/NC(=O)CCc2ccc(S(=O)(=O)N3CCOCC3)cc2)cc(C#N)n1C	-1.4	/
CCC1=C/C(=C/N(C)c2ccccc2)C(=O)S1	0.4	/
CN(CC(=O)Nc1nc2ccccc2s1)S(=O)(=O)c1ccccc1	-0.1	-0.86
CN(CC(=O)Nc1ccc(C(N)=O)cc1)Cc1c(F)cccc1Cl	24	/
CCC(=O)Nc1ccc(-c2ccc3nncn3n2)cc1	2.7	-0.22
CNC1(C)C2CCC(C2)C1(C)C (stereo unspecified)	-3.3	-0.057&-0.42
O=C(C1CCC(CNS(=O)(=O)c2cccc3nsnc23)CC1)N1CCc2ccccc21 (stereo unspecified)	2.1	-1.6
Cc1ccc(NCC(F)(F)C(F)F)cc1	0.3	2.4
Cc1ccc(CCNC(=O)Cn2c(=O)oc3cc(S(=O)(=O)NC4CCCC4)ccc32)cc1	-1.2	-0.55
CCOC(=O)c1n[nH]n2c1nc(=S)c1ccccc12	0.0	0.048
CC1CC(C)CN(C(=O)CSc2nnc(C(F)(F)F)n2C)C1 (stereo unspecified)	3.4	/
Cc1cc(N=Cc2c(O)n(-c3ccc4c(c3)OCO4)c(=O)c3ccccc23)ccn1	1.1	/
Cn1c(N)c(S(=O)(=O)N2CCc3ccccc3C2)c(=O)n(C)c1=O	-2.0	0.9
Cc1noc(C)c1COC(=O)/C=C/c1cn(-c2ccccc2)nc1-c1ccc2c(c1)OCCO2	4.0	/
O=C1CCCN2C(=N1)SC(=S)N2CN1CCN(Cc2ccccc2)CC1	1.0	-0.35
Cc1cn(CC(C)C)c(=O)n(CC(C)C)c1=O	0.3	0.63
CCn1c(O)c(C=Nc2ccccc2)oc1=S	1.9	/
Nc1cccc(S(=O)(=O)c2cccc(N)c2)c1	0.0	-0.8
CC1CC(C)(C)CC2(C1)NC(=S)N(c1nc3ccccc3s1)N2 (stereo unspecified)	-1.5	/
CCOC(=O)c1ccc(Oc2nc(NC(C)C)nc(NC(C)(C)C)n2)cc1	2.1	0.61
O=C(C1=C2SC=C(c3ccccc3)N2CCCC1)c1cccs1	2.3	/
COc1ccc(/C=C/C(=O)Nc2nc3ccc(S(C)(=O)=O)cc3s2)cc1Br	0.8	/
Cc1cc(=O)n(Cc2ccncc2)c2c1c(C)nn2C	2.0	1.8
CCn1c(CN(CCO)CCO)nc2ccccc21	2.2	-0.31
C=CCn1c(=S)[nH]c2sc3c(c2c1=O)CCN(C(=O)OCC)C3	3.6	-0.4
O=C1CN(Cc2ccccc2)c2ccccc2N1	-0.8	/
C[C@@H](c1ncncc1F)[C@](O)(Cn1cncn1)c1ccc(F)cc1F	/	0.44
O=C(CCN1CCOCC1)N/N=C/c1cccnc1	0.8	1
CCCCN1CN(CCc2cccc(Cl)c2)Cn2c1nc1ccccc12	1.8	/
O=C(CCc1nc2sc3c(c2c(=O)[nH]1)CCCC3)N1CCN(Cc2ccc3c(c2)OCO3)CC1	-1.5	/
Cc1noc(-c2ccccc2)c1NC(=O)N1CCN(C(c2ccccc2)c2ccccc2)CC1	2.7	/
CC1(c2ccc(Cl)cc2Cl)NC(=O)N(CC#N)C1=O (stereo unspecified)	0.1	/
O=C(OCCOc1ccc(Br)cc1)c1cnccn1	3.0	/
Cc1cc(=O)n(Cc2ccccc2)c(=O)n1Cc1ccccc1	-0.6	0.18
O=C(Oc1ccccc1)Oc1ccc2oc(=O)sc2c1	-0.8	/
CC1CCCCC1N1CN=C(Nc2nc3ccccc3s2)NC1 (stereo unspecified)	0.6	-0.36
COc1ccc(CC(=O)N2CCC3(CC2)Nc2ccccc2S(=O)(=O)N3)cc1	-1.2	1.5
CCCc1cc(=O)[nH]c(SCC(=O)NCCc2ccccc2)n1	1.2	/
CC(C)C1C(=O)Nc2ccc(S(=O)(=O)NCCc3ccccc3)cc21 (stereo unspecified)	-8.9	/
CCOc1ccccc1OCCCC(=O)Nc1cccc(-n2cnnn2)c1C	1.0	/
Cc1nc2ccc(C(=O)O)cc2c2c1CC(C)S2 (stereo unspecified)	1.1	-0.36
O=C(C1CC(c2ccccc2F)=NO1)N1CCCc2ccccc21 (stereo unspecified)	-0.9	-0.87
Cc1ccc2nc3c(cc2c1)c(=O)oc1ccccc13	1.3	-0.26
Cc1ccc(S(=O)(=O)N2CCN(S(=O)(=O)c3c(C)n[nH]c3C)CC2)cc1C	1.2	/
COc1ccc(-c2nnn(CC(=O)N(CC(=O)NC3CCCC3)c3ccccc3)n2)cc1OC	-3.2	0.52
O=C(Nc1ccccc1)OCC1CCCN2CCCCC12 (stereo unspecified)	-4.3	0.45
COc1ccc(-c2nc3cc(NC(=O)c4ccccc4)ccc3o2)cc1	2.4	-0.38
COC(=O)Nc1ccc(S(=O)(=O)N2CCCc3ccccc32)cc1	1.4	/
CN(C)S(=O)(=O)c1ccc(C(=O)OCC(=O)c2ccc3c(c2)NC(=O)CO3)cc1	-0.8	/
COc1ccc(N2C(=O)CC(C(C)c3ccccc3)C2=O)cc1 (stereo unspecified)	0.4	-0.66
COc1cccc(Oc2ccc(C(F)(F)F)cc2Nc2nc3ccccc3o2)c1	-0.3	/
O=S(=O)(c1cccc2c(I)cccc12)N1CCCNCC1	-5.9	-0.24
S=c1[nH]nc(-c2ccncc2)n1/N=C/c1cccnc1	1.1&-0.5	1.2
(list continues)
SMILES	Ab BasE inh	KSHV LANA nucl
CC1(C)CNC(=O)CC(C)(C)N1	0.3	-0.71
O=C(c1ncoc1-c1ccc2ccccc2c1)N1CCN(c2ccccc2)CC1	0.6	-0.61
O=C(O)CCCN1C(=O)C2C3c4ccccc4C(c4ccccc43)C2C1=O (stereo unspecified)	0.1	-0.25
CCOC(=O)c1ccc2c(c1)C(=O)N(c1cccc(C)c1)C2=O	5.2	0.16
COC(=O)c1cc2cc(Br)ccc2s1	3.6	/
CCCCNC(=O)c1c[nH]c2c(F)cccc2c1=O	-1.6	0.9
CCN(CC)S(=O)(=O)c1ccc2c(c1)n(CC)c(=O)n2CC	0.5	-0.73
CNC(=S)N1C2CCC1CC(NC(=O)NC13CC4CC(CC(C4)C1)C3)C2 (stereo unspecified)	-0.2	0.61
CCCCN1C(C)=CC(=C2C(=O)NC(=S)NC2=O)C=C1C	0.9	-0.71
S=C(Nc1ccc2c(c1)OCCO2)Nc1ccc2c(c1)OCO2	2.7	-1.2
CCCCN(C)S(=O)(=O)c1ccc(-c2ccc(=O)[nH]n2)s1	2.4	/
Cc1ccc(C(=O)c2coc3c2cc(O)c2ccccc23)cc1	0.3	-0.61

Entries of single compounds, quoted from the list:
CCCCN1C(C)=CC(=C2C(=O)NC(=S)NC2=O)C=C1C in the list: Ab BasE inh: 0.9; KSHV LANA nucl: -0.71
CCN(CC)S(=O)(=O)c1ccc2c(c1)n(CC)c(=O)n2CC in the list: Ab BasE inh: 0.5; KSHV LANA nucl: -0.73
O=C(O)CCCN1C(=O)C2C3c4ccccc4C(c4ccccc43)C2C1=O (stereo unspecified) in the list: Ab BasE inh: 0.1; KSHV LANA nucl: -0.25

For reference, part of the list above.
SMILES	Ab BasE inh	KSHV LANA nucl
CC1(C)CNC(=O)CC(C)(C)N1	0.3	-0.71
O=C(c1ncoc1-c1ccc2ccccc2c1)N1CCN(c2ccccc2)CC1	0.6	-0.61
O=C(O)CCCN1C(=O)C2C3c4ccccc4C(c4ccccc43)C2C1=O (stereo unspecified)	0.1	-0.25

An excerpt from above in order of heavy-atom count, smallest number first.
SMILES	Ab BasE inh	KSHV LANA nucl
CC1(C)CNC(=O)CC(C)(C)N1	0.3	-0.71
CC1CN(Cc2nc3c([nH]2)c(=O)[nH]c(=O)n3C)CC(C)O1 (stereo unspecified)	2.7	1.1
Cc1noc(-c2ccccc2)c1NC(=O)N1CCN(C(c2ccccc2)c2ccccc2)CC1	2.7	/

Other compounds.
SMILES	Ab BasE inh	KSHV LANA nucl
O=C1c2ccc(Oc3ccc4c(c3)C(=O)N(c3ncccn3)C4=O)cc2C(=O)N1c1ncccn1	0.8	-0.31
COC(=O)CNC(=O)c1cccc(F)c1	-0.7	-0.065
FC(F)(F)Sc1ccc2noc(-c3ccccc3)c2c1	-0.3	1.3
CCOc1cccc(/C=N/n2c(=O)[nH]c3ccccc3c2=O)c1OC	-5.3	/
O=C(CC(O)(c1ccccc1)C(F)(F)F)c1ccccc1 (stereo unspecified)	1.2	/
Cc1ccc(N(C(C)C(=O)O)S(C)(=O)=O)cc1C (stereo unspecified)	-0.2	0.53
CN(C)S(=O)(=O)c1ccc(NC2Sc3ccccc3NC2=O)cc1 (stereo unspecified)	-2.5	/
CCOc1ccc(C(=O)COC(=O)Cc2n[nH]c(=O)c3ccccc23)cc1	3.8	/
CS(=O)(=O)Nc1ccccc1C(=O)OCC(=O)N1CCC(c2ccccc2)=N1	-0.9	/
CCOC(=O)c1cc2c(=O)n3ccccc3nc2n(Cc2ccccc2)c1=NC(C)=O	2.1	1.2
CC1=CC(C)(C)N(C(=O)Nc2ccc(C)cc2)c2ccccc21	2.0	/
C=CCn1c(=N)c(-c2nc3ccccc3s2)cc2c(=O)n3ccccc3nc21	-4.0	1.9

By substructure: the entries above containing a tert-butyl group.
SMILES	Ab BasE inh	KSHV LANA nucl
CC(C)(C)NS(=O)(=O)c1ccc(-c2nnc(SCC(=O)c3ccc(F)cc3)o2)cc1	-0.4	1.1
CCOC(=O)c1ccc(Oc2nc(NC(C)C)nc(NC(C)(C)C)n2)cc1	2.1	0.61

Following part:
SMILES	Ab BasE inh	KSHV LANA nucl
COc1ccc(OC(C)C(=O)NCCC2=CCCCC2)cc1 (stereo unspecified)	4.1	-0.62
CC1CCCC(C)N1C(=O)CSc1nnc(-c2ccccc2)n1N (stereo unspecified)	2.1	-1.3
O=C(CC1SC(=O)N(CN2CCOCC2)C1=O)Nc1cccc(O)c1 (stereo unspecified)	3.2	/
COC(=O)c1ccc(-c2ccco2)n1Cc1cccc(F)c1	-4.2	1.4
CNc1cc(CS(=O)c2ccccc2)nc(-c2ccccc2)n1 (stereo unspecified)	/	-0.88
O=c1c(=NNc2nn[nH]n2)c(=O)c2ccccc12	4.4	0.5
CC(C)[N+]1(C)C2CCC1CC(OC(=O)C(CO)c1ccccc1)C2 (stereo unspecified)	0.7	-0.47
O=C(O)c1cccc(S(=O)(=O)NNc2ccccc2C(F)(F)F)c1	1.0	/
CC(=O)NC(=O)c1nnn(-c2ccc(C)cc2)c1NC(C)=O	1.7	0.76
Cc1n[nH]c(C)c1CC(=O)NCCC1=CCCCC1	1.5	-0.0025
COc1cc(C(=O)OCC(=O)c2cc(C)n(C)c2C)cc(NC(=O)c2ccco2)c1OC	0.0	/
Cc1c(Cl)cccc1-n1ncnc1-c1ccc(N(C)C)cc1	0.2	-0.28
O=C(Cn1c(=O)oc2ccccc21)NC1CCCc2ccccc21 (stereo unspecified)	-0.7	-0.068
O=C(CCCN1C(=O)CCC1=O)Nc1ccc2c(c1)OCCO2	-0.3	-0.7
CC(C)(C#N)NCc1ccco1	1.4	/
O=C(CCC(=O)N1CCSc2ccccc21)NC1CCCC1	1.0	-0.77
CN(C)C(Cn1c(=S)[nH]c2ccccc2c1=O)c1ccccc1 (stereo unspecified)	-0.8	/
Cc1cc(C)n2nc(N3C(=O)CCC3=O)nc2n1	0.1	-0.068
Cc1ccc(Cn2c(=O)c3ccccc3n3c(SCC4CCCO4)nnc23)cc1 (stereo unspecified)	1.3	/
Cc1nccn1C(=O)c1ccccc1C(=O)O	-1.4	0.67
CN=c1scc(-c2ccc(Br)s2)n1/N=C1\C(=O)Nc2ccccc21	14	/
CCOC(=O)c1oc2ccccc2c1N=Cc1c(O)n(CC)c(=S)n(CC)c1=O	3.4	/
CCC(=O)Nc1nc(-c2ccc(OC)cc2)cs1	-2.1	0.35
c1ccc(CCCc2nc(-c3ccccn3)no2)cc1	-0.8	0.26
COc1cc2nc(NC(=O)c3ccccc3)[nH]c(=O)c2cc1OC	-1.2	-0.19
FC(F)(F)c1cc(-c2ccco2)nc(N2CCCC2)n1	1.5	0.38
CCN(C(=O)c1cn(-c2ccccc2)nc1-c1cccs1)c1ccccc1	0.3	/
CCC(C)n1c(=O)[nH][nH]c1=S (stereo unspecified)	2.2	/
COc1cc(-c2nnc(COC(=O)C3(c4ccccc4)CC3)o2)cc(OC)c1OC	-0.1	/
Cc1cc(NC(=O)CN2CCc3ccccc3C2)nc2c1c(=O)oc1ccccc12	1.8	-0.31
CCN(Cc1ccccc1)Cc1c(O)ccc2oc(C)c(C(=O)NC3CCCC3)c12	0.5	0.041
CN(C)CCNCc1ccc(-c2ccccc2)o1	-2.3	-0.25
C/C(=N\N=C1/NC(=O)CS1)c1cccc2ccccc12	-0.7	/
O=C1NC(=O)N(C2CCCCC2)C(=O)/C1=C\c1ccc(-c2ccc(C(=O)O)cc2)o1	6.6	0.3
